# Screening results (PubChem BioAssay)
# CtBP-E1A blk = qHTS Assay for Inhibitors of the CtBP/E1A Interaction; CtBP / adenovirus E1A interaction (AlphaScreen); AlphaScreen GST-E1A/His-CtBP binding, 1536-well; stronger effect = lower value; control for the full effect not named in the record; activity change, % (test concentration not listed); hit rate 0.49% among 340,000; AID 651724, 2012; in the data active means activity change below about -65%; inconclusive means about -30% to -65%; inactive means above about -30%; further: on the % scale 0 is the no-effect control and ±100 the full control effect; compound concentration not given in the record
#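 GST-E1A and His-tagged CtBP (125 nM each as 5X stock) were preincubated with pin-transferred compound for 2 h at 37 °C in the dark, then glutathione donor and nickel acceptor beads were added for 1 h before AlphaScreen reading.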
# Six1-Eya2 blk = qHTS Assay for Inhibitors of the Six1/Eya2 Interaction. Homeobox protein SIX1 (Homo sapiens) + Protein phosphatase EYA2 (Homo sapiens), …. AlphaScreen GST-Six1/His-Eya2 binding, biochemical; stronger effect = lower value; control for the full effect not named in the record. activity change, % (no concentration beside the values). hit rate 0.56% among 360,000; in the data active = activity change below about -65%; inconclusive = about -30% to -65%; inactive = above about -30%; further: on the % scale 0 is the no-effect control and ±100 the full control effect; compound concentration not given in the record
#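 Compounds are tested against tagged Six1 and Eya2 proteins bridged by glutathione donor and nickel acceptor beads; after a one-hour incubation at 37 °C without light, AlphaScreen emission is recorded.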
# TRPV1 PAM = HTS Assay for Compounds that Act as Potentiators of the Vanilloid Receptor 1; Transient receptor potential cation channel subfamily V member 1 (Homo sapiens), Q8NER1; TRPV1-expressing cells, Fluo-8 calcium influx, capsaicin EC20 potentiation; host cell line not named in the record; control for the full effect not named in the record; potentiation, % at 8.33 µM; hit rate 0.02% among 320,000; AID 540277, 2011; active means potentiation above 80%; inconclusive means 30% to 80%; inactive means below 30%; further: 0% is about no effect
#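 Fluo-8 calcium influx in TRPV1-expressing cells, kinetic read (ex 480/em 520 nm). Compound added and read 3 min for agonist activity, followed by capsaicin at EC20 final and 2 min further read for enhancement.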
# TRPML1 inh = qHTS for Inhibitors of the Human Mucolipin Transient Receptor Potential 1 (TRPML1) | Mucolipin-1 (Homo sapiens), Q9GZU1 | TRPML1-inducible cells, Ca2+ dye fluorescence, FDSS; stronger effect = lower value; inhibition of EC80 agonist-evoked calcium signal | activity change, negative = inhibition, % (concentration not given with the values) | hit rate 0.02% among 390,000; in the data active means activity change below about -50%; inconclusive means about -30% to -50%; inactive means above about -30%;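 further: stimulus is agonist 54-4 at its EC80 concentration; on the % scale 0 is the no-effect control and ±100 the full control effect; compound concentration not given in the record; the text of the record puts the active cut at -80%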
# Target sequence (Q9GZU1 whole entry, looked up): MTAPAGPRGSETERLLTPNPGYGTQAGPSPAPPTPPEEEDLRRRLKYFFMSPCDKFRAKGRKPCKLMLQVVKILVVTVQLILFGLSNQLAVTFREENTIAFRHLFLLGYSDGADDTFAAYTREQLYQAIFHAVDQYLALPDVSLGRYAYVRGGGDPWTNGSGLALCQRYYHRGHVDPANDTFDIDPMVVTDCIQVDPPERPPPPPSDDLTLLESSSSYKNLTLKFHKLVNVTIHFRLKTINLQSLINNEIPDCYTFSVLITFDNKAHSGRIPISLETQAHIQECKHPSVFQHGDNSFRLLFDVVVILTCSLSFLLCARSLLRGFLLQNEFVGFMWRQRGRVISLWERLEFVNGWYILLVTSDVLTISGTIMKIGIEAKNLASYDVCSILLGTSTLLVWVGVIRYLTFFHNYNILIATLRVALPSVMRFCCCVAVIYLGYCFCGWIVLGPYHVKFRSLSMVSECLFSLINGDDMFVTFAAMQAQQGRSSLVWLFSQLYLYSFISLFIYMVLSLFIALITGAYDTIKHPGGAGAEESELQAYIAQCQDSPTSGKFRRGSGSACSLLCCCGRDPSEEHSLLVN
#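 TRPML1-DL cells, Tet-induced overnight (~16 h, 37 °C) at 1,500 cells/well, were loaded with Ca8 no-wash dye plus quencher for 45-90 min at room temperature. Compounds were pinned during FDSS kinetic reading; agonist 54-4 at EC80 (4 uM final) then added.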
# TRPML1 agonist = qHTS for Agonists of the Human Mucolipin Transient Receptor Potential 1 (TRPML1); activation, % (concentration not given with the values); TRPML1-expressing cells, Ca2+ dye fluorescence, FDSS; host cell line not named in the record; reference of the full effect not given here; hit rate 0.12% among 410,000; Mucolipin-1 (Homo sapiens), Q9GZU1; in the data active = activation above about 50%; inconclusive = about 30% to 50%; inactive = below about 30%; further: 0% is about no effect; the text of the record puts the active cut at 80%
#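 Cells: TRPML1-DL, 1X Tet inducer, ~16 h at 37 degrees C/5% CO2. Dye: ABD Ca8 no-wash + quencher, 45-90 min RT. Read: 10 s baseline, compound add, 110 s agonist phase; 54-4 EC80 (4uM final), 110 s antagonist phase.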
# D2 PAM = Beta-Arrestin HTS for Positive Allosteric Modulators of the Human D2 Dopamine Receptor: Potentiators | D(2) dopamine receptor (Homo sapiens), P14416 | DiscoveRx D2 beta-arrestin cells, luminescence, 90 min; 100% = 57 uM dopamine signal | potentiation, % (test concentration not listed) | hit rate 0.23% among 360,000; active = potentiation of 50% or more; inconclusive = 30% to 50%; inactive = 30% or less;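 further: compound concentration not given in the record; tested on top of an EC20 dose of dopamine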
# Target sequence (P14416 whole entry, looked up): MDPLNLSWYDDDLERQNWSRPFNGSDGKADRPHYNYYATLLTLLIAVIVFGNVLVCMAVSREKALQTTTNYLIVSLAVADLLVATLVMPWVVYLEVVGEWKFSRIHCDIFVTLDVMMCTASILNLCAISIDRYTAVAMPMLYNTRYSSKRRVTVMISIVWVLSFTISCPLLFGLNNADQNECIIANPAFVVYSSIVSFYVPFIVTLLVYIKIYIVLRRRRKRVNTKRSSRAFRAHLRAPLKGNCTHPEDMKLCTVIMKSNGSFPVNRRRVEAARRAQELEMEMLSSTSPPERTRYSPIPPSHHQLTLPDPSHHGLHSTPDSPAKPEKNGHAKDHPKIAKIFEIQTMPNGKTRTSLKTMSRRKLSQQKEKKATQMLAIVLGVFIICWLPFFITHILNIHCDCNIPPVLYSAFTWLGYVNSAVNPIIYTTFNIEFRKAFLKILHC
#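 D2 cells co-treated with compound plus 50 nM dopamine (EC20) for 90 min at 37 deg C to detect potentiation. Beta-arrestin recruitment was read as enzyme-fragment luminescence after 1 h at ambient temperature. Full response was set by 57 uM dopamine.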
# An asterisk follows results filed as active; ? = inconclusive; · = no result given; & = joins results of further samples.
# Start of the listing, in advance, seven compounds:
SMILES,CtBP-E1A blk,Six1-Eya2 blk,TRPV1 PAM,TRPML1 inh,TRPML1 agonist,D2 PAM
FC(F)Oc1ccc(NC(=S)NCc2ccccc2)cc1Cl,8,5,-17,11,0.1,-10
CCc1nnc(NC(=O)CSc2ncc(-c3ccccc3)n2CC)s1,-3,-11,-12,-8,1.8,-10
CC1(C(=O)NS(=O)(=O)c2ccc(F)cc2F)CCN1C(=O)CC1CCCCC1 (stereo unspecified),-24,18,·,33,0.6,-8
CCOc1ccc(C(=O)CCC(=O)NNC(=O)CCN2CCN(c3ccccc3)CC2)cc1,4,-1,·,-5,0.8,-13
CSc1nc2ccccc2s1,1,9,-3,·,·,-16
O=S1(=O)N=C(c2ccccc2)C=C(c2ccccc2)N1,8,-2,·,-8,-0.6,·
c1ccc(N2CC[N+]3(CCCC3)CC2)nc1,4,1,-2,31,0.5,6

# Results, repeating the preview:
SMILES,CtBP-E1A blk,Six1-Eya2 blk,TRPV1 PAM,TRPML1 inh,TRPML1 agonist,D2 PAM
FC(F)Oc1ccc(NC(=S)NCc2ccccc2)cc1Cl,8,5,-17,11,0.1,-10
CCc1nnc(NC(=O)CSc2ncc(-c3ccccc3)n2CC)s1,-3,-11,-12,-8,1.8,-10
CC1(C(=O)NS(=O)(=O)c2ccc(F)cc2F)CCN1C(=O)CC1CCCCC1 (stereo unspecified),-24,18,·,33,0.6,-8
CCOc1ccc(C(=O)CCC(=O)NNC(=O)CCN2CCN(c3ccccc3)CC2)cc1,4,-1,·,-5,0.8,-13
CSc1nc2ccccc2s1,1,9,-3,·,·,-16
O=S1(=O)N=C(c2ccccc2)C=C(c2ccccc2)N1,8,-2,·,-8,-0.6,·
c1ccc(N2CC[N+]3(CCCC3)CC2)nc1,4,1,-2,31,0.5,6
CCCCN1/C(=C/c2cccc[n+]2C)Sc2cc(NC(C)=O)ccc21,·,0,-8,15,0.3,-10
CCOP(=O)(OCC)C(Nc1cc(Cl)cc(Cl)c1)c1cccc(O)c1 (stereo unspecified),8,6,0,-2,-0.6,-6
Cn1c(CC(=O)Nc2ccccc2F)nnc1SCC(=O)Nc1nccs1,-5,-8,21,-9,1.5,-2
COc1ccc(Br)cc1/C=C/C(=O)Nc1ccc(C)cc1,2,-5,11,-6,-0.3,-16
C=CCn1c(Cc2cccs2)nnc1SCC(=O)c1ccc(F)cc1,0,-2,-7,32,0.4,-9
COc1ccc(Cl)cc1NC(=O)CSc1nc(N2CCCCC2)nc(N2CCCCC2)n1,-1,-7,-12,17,0.5,-20
O=C(Nc1cc(Cl)ccc1N1CCCC1)C1=COCCO1,·,-4,7,-7,0.5,2
CN(C)c1ccc(N/C=C/C(=O)C(C)(C)C)cc1,?,?,10,24,0.2,66*
OCC(Cc1ccccc1)Nc1c2ccccc2nc2ccccc12 (stereo unspecified),6,0,-12,9,1.9,2
CCOc1ccc(N2C(=O)C3C(c4ccccc4)=NN(c4ccccc4)C3C2=O)cc1 (stereo unspecified),-7,6,11,-17,-0.4,2
Cc1ccc(-n2nnc3c(=O)n(CC(N)=O)cnc32)cc1,0,1,-2,-26,1.3,-2
O=C(O)c1ccc(NC(=O)c2ccccc2NC(=O)c2ccccc2Cl)cc1,0,-11,4,-29,0.6,-4
COC(=O)[C@@]1(Cc2ccc(F)cc2)[C@H]2c3cc(C(=O)N4CCCC4)n(Cc4cc(F)cc5c4OCOC5)c3C[C@H]2CN1C(=O)c1ccccc1,-17,-11,·,·,-0.1,·
CCc1c(O)nc(SCc2nc3ccccc3c(=O)[nH]2)[nH]c1=O,·,-4,11,6,-0.7,-8
CCc1nc2c(OCC3CCCCC3)cccn2c1N(C)C(=O)c1ccc(OC)cc1,-19,-4,·,63,3.1,-19
CCCCCC(=O)Nc1ccc2ccccc2c1,-9,18,-9,1,1.6,0
COc1ccc(C2Nc3ccccc3C(=O)N2c2ccc(C)cc2)cc1Cn1nc(C)c([N+](=O)[O-])c1C (stereo unspecified),8,-10,-3,-9,-0.4,-12
CSc1nc(C)c(C(=O)Nc2ccccc2)c(C)c1C#N,7,5,-2,22,0.8,-5
CC(C)Oc1ccc(S(=O)(=O)N2CCOCC2)cc1NC(=O)C(C)Oc1ccc(F)cc1 (stereo unspecified),-2,-2,-3,-11,0.6,-14
O=C(c1ccco1)N1CCN(C2CCCC2)CC1,4,1,-29,-9,-0.3,-6
CC(C)(C)NC(=O)c1ccc2c(c1)C1C3CCC(C3)C1C(c1ccccc1)N2 (stereo unspecified),-19,-23,-10,25,1.0,-24
O=C(Nc1ccc(Br)cc1)c1cccn1-c1ncc(C(F)(F)F)cc1Cl,7,1,·,-12,3.8,-8
Cn1c(=NC(=O)CCl)sc2ccccc21,0,8,6,41,0.4,-2
COc1cc(OC)cc(C(=O)Nc2cccc3ccccc23)c1,6,7,-6,-5,2.2,2
CC(=O)C1=C(c2cccc([N+](=O)[O-])c2)N(C(C)=O)n2c(C)nnc2S1,-15,-9,14,-10,5.6,-17
CN(C(=O)c1ccc2nc(N)sc2c1)c1ccccc1,-30,-11,25,-13,-0.2,-3
O=c1c2ccccc2cnn1Cc1nnc(-c2cccs2)o1,23,6,5,-6,1.2,1
COc1ccccc1OC(=O)CN1C(=O)c2ccccc2C1=O,2,14,-1,2,-0.5,-14
CN(C)Cc1c(C(=O)N/N=C/c2cccnc2)nnn1-c1nonc1N,1,2,-12,21,0.0,-10
CC1(C(=O)NS(=O)(=O)c2ccc(C#N)cc2)CCN1C(=O)C1CCCCC1 (stereo unspecified),13,10,·,·,-0.2,1
COCCNC(=S)N(CCc1c(C)[nH]c2ccc(F)cc12)Cc1cccs1,-27,-19,-8,4,-0.2,-12
CC(Oc1cccc(Cl)c1)C(=O)Nc1cc(Cl)ccc1N1CCOCC1 (stereo unspecified),24,15,-9,-16,-0.1,-2
O=C(C1CC1)N1CCN(c2ccnc3cc(Cl)ccc23)CC1,-2,-1,-6,9,0.3,-19
CCCNc1nc(Nc2ccc(C)c(Cl)c2)c2cnn(C)c2n1,-15,?,-8,·,·,-7
CNC(=S)N(Cc1cccs1)Cc1cc2cc(OC)ccc2[nH]c1=O,-10,2,10,-8,0.4,-18
COc1ccc(NC(=O)CSc2nnc3ccc(-c4cccnc4)nn23)cc1OC,-2,3,7,3,-0.6,-5
N#Cc1ccccc1OCC(=O)N1N=C(c2cccs2)CC1c1ccco1 (stereo unspecified),·,-7,-13,9,-0.8,-13
COc1cccc(N2CCN(c3nc(C)cc(=O)[nH]3)CC2)c1,·,2,-11,·,·,-9
O=C(Nc1ccccc1C(F)(F)F)c1ccccc1Br,-2,11,2,-6,0.3,-5
Cc1ccc(/C=N/NC(=O)CSc2nnc(-c3ccccc3)n2-c2ccc(Cl)cc2)o1,-4,-14,5,-18,2.3,54*
Nc1csnc1C(=O)O,4,1,9,-7,-0.4,-12
Nc1nc2ccccc2n1C(=O)c1ccccc1,·,-6,11,2,-1.2,-2
COc1ccc(C(=O)Nn2c(C)nc3ccccc3c2=O)cc1OC,·,-1,-4,-11,1.1,-9
COc1ccc(C2(C)NC(=O)N(CC(=O)NCc3ccccc3)C2=O)cc1OC (stereo unspecified),6,7,20,7,-0.9,0
CC(C)(C)OC(=O)NCc1ccc(NC(=O)c2nc[nH]c2C(=O)NCCNC(=O)c2[nH]cnc2C(=O)Nc2ccc(CNC(=O)OC(C)(C)C)cc2)cc1,1,3,·,9,1.6,0
COc1ccc(CNC(=O)N2CCN(S(=O)(=O)c3ccccc3)CC2)cc1,0,-4,-61,10,-0.6,-5
CCCOC(=O)c1c(NC(=O)CSc2nc(-c3ccco3)cc(C(F)(F)F)n2)sc(C(=O)OC)c1C,1,0,-3,-2,-0.1,-10
CC(=O)Cc1nsc(Nc2cccc(C)c2)n1,-17,7,0,-11,-0.3,-6
CC(C)(C)c1csc(NC(=O)c2ccccc2O)n1,-7,0,-17,-15,-0.3,-4
COc1ccc(CCCNC(=O)C2(C)Cc3c(-c4cccc(C(N)=O)c4)ccnc3O2)cc1 (stereo unspecified),-12,0,·,·,-0.6,27
CN(CCO)c1cnccn1,3,12,0,15,1.1,-10
CCC(=O)N1c2ccccc2NC2=C(C(=O)CCC2)C1c1ccc(N(C)C)cc1 (stereo unspecified),-5,6,8,3,1.6,2
COc1cccc2c1OCC(C(=O)Nc1nccs1)=C2,·,-2,23,3,2.1,-2

# Next results.
SMILES,CtBP-E1A blk,Six1-Eya2 blk,TRPV1 PAM,TRPML1 inh,TRPML1 agonist,D2 PAM
N#CCCN(C(=O)CSc1nc2nc(-c3cccs3)cc(C(F)(F)F)c2c(=O)[nH]1)c1ccccc1,-5,3,?,-12,1.3,-1
Nc1[nH]n2c(=O)cc(-c3ccccc3)nc2c1N=Nc1ccc(S(N)(=O)=O)cc1,-18,-28,-14,27,2.2,-20
COc1ccc(CNS(=O)(=O)c2cc3c4c(c2)CCN4C(=O)CC3)cc1,0,4,5,3&-17,-0.2&-0.9,-10
CN(C)c1ccc(NC(=O)N2CCOCC2)cc1,-9,-6,6,-13,0.3,-5
Cc1ccc(C(=O)O/N=C(\N)c2ccccn2)c(Cl)c1,·,-3,-3,·,·,91*
Cc1c(N=Cc2c(O)n(Cc3ccco3)c(=O)c3ccccc23)c(=O)n(-c2ccccc2)n1C,9,-13,13&10,0,0.9,-21
COc1ccc(OC)c(S(=O)(=O)Nc2ccc(-c3ccc4nncn4n3)cc2)c1,-4,-11,1,19,2.6,15
CC(=O)N1CCc2cc(S(=O)(=O)CCC(=O)NCc3cccs3)ccc21,8,4,-5,-5,-0.6,1
CCOc1cnn(-c2ccccc2)c(=O)c1Cl,·,-2,0,5,-0.8,-6
CN1CCN(S(=O)(=O)c2cccc([N+](=O)[O-])c2)CC1,14,1,·,4,-0.7,-1
CCN(Cc1nc2cc(Cl)ccc2c(=O)[nH]1)C(=O)COc1ccccc1Cc1ccccc1,3,-3,14,4,1.9,-5
O=C(COC(=O)CSc1ccc(Cl)cc1)Nc1ccccc1,-12,3,13,-13,0.5,-5
CC(C)(C)OC(=O)N/N=C/c1ccc(C(=O)O)cc1,-1,-2,3,-14,0.0,-13
O=c1oc(-c2ccccc2[N+](=O)[O-])nc2ccccc12,3,-2,-14,10,-0.3,20
O=C(O)c1ccc(Cl)c(S(=O)(=O)Nc2ccc3[nH]c(=O)[nH]c3c2)c1,-18,-10,?,·,·,-4
O=C1C(c2cc(=O)c3ccccc3[nH]2)=C(O)c2ccccc21,-10,-7,-5,-11,-0.1,-6
FC(F)(F)COc1nc(N2CCCCC2)nc(N2CCNCC2)n1,-10,-1,16,-14,-0.7,10
